Mtb growth: Mycobacterium tuberculosis H37Rv growth inhibition, cell based, confirmatory dose response (AID 1949) | hit rate 1.6% among 100,000 | most inactive calls were filed without a number and no value below 0 was filed | inhibition, % at 10 µg/mL; hits with a dose series show IC50 in µg/mL;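 active = confirmed in a dose series; inconclusive = about 50% or more but not retested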;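 also: bacteria grown 7 days with compound before Alamar blue readout; 0% = untreated bacteria and 100% = reference antibiotic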
* marks the source's active call; other numbers are inactive results; i = inactive; ? = inconclusive.

SMILES	Mtb growth
CCC(Sc1nnc(N)s1)C(=O)Nc1ccc(C(C)=O)cc1 (stereo not given)	i
Cc1ccccc1CNC(=O)c1ccc(C(C)(C)C)cc1	i
CC(C)C1C(c2ccccc2)NC(c2ccccc2)CC1(O)c1ccc(F)cc1 (stereo not given)	10µg/mL*
Cc1cc(C)c(S(=O)(=O)NCC(=O)Nc2ccc(C(C)C)cc2)c(C)c1	5%
Cc1c(NC(=O)CN(c2ccccc2F)S(C)(=O)=O)cccc1[N+](=O)[O-]	i
CC(C)c1ccc(N(CC(=O)NC(C)c2ccccc2)S(=O)(=O)c2ccccc2)cc1 (stereo not given)	i
Cc1ccc(S(=O)(=O)Nc2ccc(Br)cc2C)cc1	9%
COc1ccc(/C(N)=N/OC(=O)CN(C)S(=O)(=O)c2ccc(Cl)cc2)cc1OC	i
O=C(Nc1nnc(SCC(=O)N2CCN(c3ccccc3)CC2)s1)c1ccccc1Cl	i
Cc1ccccc1NC(=S)Nc1cccc(F)c1	i
CCc1ccccc1NC(=O)CCCN1C(=O)c2ccccc2C1=O	i
CCCCC(=O)Nc1ccc(Cl)cc1F	11%
CCOC(=O)c1ccc(NC(=O)CSc2nnnn2-c2cccc(C(C)=O)c2)cc1	i
O=C(CCc1ccccc1)Nc1ccc(C(=O)NCC2CCCO2)cc1 (stereo not given)	i
CCC(Oc1cccc(NC(=O)c2ccc(Br)cc2)c1)C(=O)c1ccccc1 (stereo not given)	19%
COC(=O)c1ccc(C(=O)OC)c(NC(=O)Oc2ccccc2)c1	i
Cc1ccc(N2C(=O)CC(Sc3ccccc3C(=O)N3CCOCC3)C2=O)cc1 (stereo not given)	i
O=C(NC1CCCCCC1)C1CCN(S(=O)(=O)c2ccccc2)CC1	i
O=C(O)c1cccc(-n2nnnc2SCc2ccccn2)c1	i
CCOC(=O)c1c(NC(=O)C2CC=CCC2C(=O)O)sc(C)c1-c1ccc(F)cc1 (stereo not given)	i
Cc1ccc(-c2nnc(SCC(=O)Nc3nc(C)cs3)n2C)cc1	1%
COc1ccc2occ(C(O)c3ccccc3)c2c1 (stereo not given)	4%
CCN(CC)C(=O)CNS(=O)(=O)c1ccc(C)cc1	i
CC(=O)c1c(N)nc(C)nc1-c1ccccc1	1%
Cc1ccc(C(C)(C)C)c(OCCN2CCNCC2)c1	i
The listing continues.
SMILES	Mtb growth
N#CCCn1cc(C(N)=O)c(-c2cccc(Cl)c2)n1	i
O=S(=O)(c1cccc(NC(=S)Nc2ccc(Br)cc2Cl)c1)N1CCOCC1	i
O=C(CSc1nc2ccccc2c(=O)n1-c1ccccc1)N1CCc2ccccc21	i
O=C(c1cccc(Cl)c1)N1N=C(c2ccc(Cl)cc2)CC1(O)C(F)(F)F (stereo not given)	3.8µg/mL*
COc1cccc(OC)c1OCCOCCNCCO	i
O=C1Nc2ccccc2C1(O)Cc1ccncc1 (stereo not given)	i
CS(=O)(=O)c1ccc2nc(NC(=O)c3ccccc3)sc2c1	i
CC(=O)c1ccc(NS(=O)(=O)Cc2ccc(Cl)cc2)cc1	i
O=C(Cc1cccs1)Nc1ccc(NC(=O)c2cccs2)cc1	2%
O=c1oc(-c2ccc(Br)cc2)nc2ccc(Cl)cc12	i
Cc1cc(C)c(S(=O)(=O)N2CCCC2)cc1C	i
COc1ccc(OC)c(N(CC(=O)Nc2ccc(F)c(Cl)c2)S(=O)(=O)c2ccc(C)cc2)c1	i
Cc1cc(C)c(S(=O)(=O)NC(C(C)C)C(C)C)c(C)c1	0%
O=C(CN(Cc1ccccc1)S(=O)(=O)c1ccc(Br)cc1)NCCC1=CCCCC1	i
C=CCNC(=O)c1ccccc1NC(=O)c1ccc(N(Cc2ccccc2)S(C)(=O)=O)cc1	20%
Cc1noc(C)c1C(=O)Nc1sc2c(c1C(N)=O)CCC2	i
Cc1cccc(C)c1OCC(=O)Nc1ccc(S(=O)(=O)N(C)Cc2ccccc2)cc1	4%
O=C(CN1CCN(c2ccc(F)cc2)CC1)NCc1cccs1	i
COc1ccc(C(C)(C)C)cc1S(=O)(=O)NC1CC(C)(C)NC(C)(C)C1	i
Cc1ccc(C)c(OCC(=O)O/N=C(\N)c2ccc(Br)cc2)c1	i
COc1ccccc1C(=O)Oc1cccc(NC(=O)C2CC(=O)N(c3ccccc3)C2)c1 (stereo not given)	i
CCn1c(SCC(=O)Nc2ccc3c(c2)OCCO3)nnc1-c1ccco1	i
Cc1ccc(SCCCn2cncn2)cc1	i
COc1ccc2cc(Br)ccc2c1CC(=O)NC(C)C	i
O=Cc1nc(-c2ccccc2Cl)n2ccccc12	i

14 entries drawn at random from the list so far, as already listed:
SMILES	Mtb growth
COc1ccc2occ(C(O)c3ccccc3)c2c1 (stereo not given)	4%
COc1ccccc1C(=O)Oc1cccc(NC(=O)C2CC(=O)N(c3ccccc3)C2)c1 (stereo not given)	i
CC(C)C1C(c2ccccc2)NC(c2ccccc2)CC1(O)c1ccc(F)cc1 (stereo not given)	10µg/mL*
O=C(CSc1nc2ccccc2c(=O)n1-c1ccccc1)N1CCc2ccccc21	i
CCn1c(SCC(=O)Nc2ccc3c(c2)OCCO3)nnc1-c1ccco1	i
CCC(Oc1cccc(NC(=O)c2ccc(Br)cc2)c1)C(=O)c1ccccc1 (stereo not given)	19%
Cc1cc(C)c(S(=O)(=O)N2CCCC2)cc1C	i
CC(=O)c1c(N)nc(C)nc1-c1ccccc1	1%
COc1ccc(OC)c(N(CC(=O)Nc2ccc(F)c(Cl)c2)S(=O)(=O)c2ccc(C)cc2)c1	i
CCC(Sc1nnc(N)s1)C(=O)Nc1ccc(C(C)=O)cc1 (stereo not given)	i
Cc1ccc(SCCCn2cncn2)cc1	i
O=C(CCc1ccccc1)Nc1ccc(C(=O)NCC2CCCO2)cc1 (stereo not given)	i
C=CCNC(=O)c1ccccc1NC(=O)c1ccc(N(Cc2ccccc2)S(C)(=O)=O)cc1	20%
COc1ccc(/C(N)=N/OC(=O)CN(C)S(=O)(=O)c2ccc(Cl)cc2)cc1OC	i

Returning to the listing, repeating the three entries before the break.
SMILES	Mtb growth
Cc1ccc(SCCCn2cncn2)cc1	i
COc1ccc2cc(Br)ccc2c1CC(=O)NC(C)C	i
O=Cc1nc(-c2ccccc2Cl)n2ccccc12	i
CCOC(=O)c1ccc(NC(=O)C2CCC(N3C(=O)C4C5C=CC(C6CC56)C4C3=O)CC2)cc1 (stereo not given)	i
O=c1c2c(-c3ccc(F)cc3)csc2ncn1-n1cccc1	1%
Cn1nc(CC(=O)Nc2ccc(F)cc2Cl)c2ccccc2c1=O	i
CCOc1ccc(C(=O)c2cccs2)cc1	i
CCOC(=O)c1cnc(SCC(=O)N2CCCC2)nc1N	i
COCCCN1C(=O)c2ccc(C(=O)Nc3cc(C)ccc3C)cc2C1=O	i
C=CCc1cccc(OC)c1OCCCCN1CCCC1	i
CN(C)c1ccc(C(=O)CC2(O)C(=O)Nc3ccccc32)cc1 (stereo not given)	i
CCOC(=O)Nc1nnc(CC(C)C)s1	i
COc1ccccc1OCC(=O)Nc1ccccc1C(=O)Nc1ccccc1	1%
CC1CCN(C(=O)CN2C(=O)c3cccc4cccc(c34)C2=O)CC1	i
CC(Oc1ccc(F)cc1)C(=O)Nc1ccc(S(=O)(=O)Nc2ncccn2)cc1 (stereo not given)	i
O=C(NCc1ccco1)c1cccc(C(F)(F)F)c1	i
O=C(NC1CCCCC1)c1cccc(COc2ccc3ccccc3c2)c1	i
COc1c(C)cc(Br)cc1C(=O)NC(=S)Nc1cccc(C(C)=O)c1	i
CCCC(=O)Nc1ccc(N(CC)CC)cc1C	i
CCOc1ccc(C(C)N)cc1OCC (stereo not given)	2%
COC(=O)Cc1c(C)c2cc(Cl)c(OCc3cc([N+](=O)[O-])ccc3OC)cc2oc1=O	i
Cc1cc(C(F)(F)F)nc(SCC(=O)NC2=NC(=O)C(C)S2)n1 (stereo not given)	i
CC1CN(CCOc2ccc(Cl)cc2)CC(C)O1 (stereo not given)	i
Cc1ccc(CNC(=O)C(=O)NCCC2CCCCC2)cc1	i
CC1(C)CC(=O)C2=C(C1)N(CCc1ccccc1)C(=O)C2(NC(=O)c1cccnc1)C(F)(F)F (stereo not given)	i
COc1ccc(NC(=S)Nc2ccc(Oc3ccccc3)cc2)cc1	?
O=C(COc1ccc(Cl)cc1)Nc1ncc(Cc2cccc(C(F)(F)F)c2)s1	2%
O=C(O)c1cccc(NC(=O)c2ccccc2NC(=O)c2ccccc2Br)c1	1%
(next part)
SMILES	Mtb growth
Cc1ccc(C(C)(C)C)c(OCCCN2CCN(C)CC2)c1	i
Cc1c(-c2ccc(Cl)cc2)nc2ccccc2c1C(=O)O	i
Cc1ccc(C23CC4CC(CC(NC(=O)N5CCN(C)CC5)(C4)C2)C3)cc1	i
Cc1c(C(=O)NCCSC2CCCCC2)cccc1[N+](=O)[O-]	i
O=C(Cn1cnc2ccccc2c1=O)c1ccc(Cl)cc1	i
CCOc1ccccc1N(CC(=O)Nc1c(C)cc(C)cc1C)S(=O)(=O)c1ccccc1	9%
CC(C)(C)c1ccc(OCCNC(=O)c2ccccc2Br)cc1	i
CCN(CC)C(=O)Nc1ccc2nsnc2c1	i
CCCn1nnc(NC(=O)c2ccccc2F)n1	i
COc1cc(NC(=S)NC(=O)c2cc(Br)ccc2Cl)c(OC)cc1Cl	2%
CCN(CC)C(=O)C(=O)Nc1cccc(Cl)c1C	i
CC(NC(=O)c1ccc(Cl)cc1Cl)c1nnc(SCC(=O)Nc2cccc(C(F)(F)F)c2)n1C (stereo not given)	i
CCC(C)c1ccccc1OCCNCCOC (stereo not given)	i
CCOC(=O)c1c(NC(=S)Nc2ccc(Br)cn2)sc2c1CCCCCC2	i
CN1CCN(c2ccc(NC(=O)c3c(F)c(F)c(F)c(F)c3F)cc2)CC1	i
CC(C)Oc1ccc(NC(=O)Oc2ccccc2)cc1	i
CCCC(=O)Nc1ccc(C(=O)NCC2CCCO2)cc1 (stereo not given)	i
COc1ccc(C(=O)N2CCN(C(=O)COc3ccc4ccccc4c3)CC2)cc1OC	i
COc1ccc(OCCCC(=O)Nc2ccccc2C)cc1	i
O=C(CN1C(=O)C(=O)c2ccccc21)NCc1ccccc1	i
Cc1nc2ccccc2c(C(=O)O)c1C(=O)Nc1ccccc1Cl	2%
Cn1c(SCC(=O)c2ccc3c(c2)OCO3)nnc1-c1ccco1	i
CCc1cccc(CC)c1NC(=O)CSc1nnc(-c2cccc(NC(C)=O)c2)n1C	i
COc1ccc(/C(N)=N/OC(=O)Cc2ccccc2OC)cc1	6%
CCCc1nc(NC(C)=O)c(C#N)c(-c2ccco2)c1CC	i
The results go on.
SMILES	Mtb growth
COC(=O)c1ccccc1NC(=O)CSc1nc2sc3c(c2c(=O)[nH]1)CCC3	i
COc1ccc([N+](=O)[O-])cc1NS(=O)(=O)c1ccc2c(c1)OCCO2	i
O=C(N/N=C/c1cccc(O)c1)c1cc(-c2ccc3ccccc3c2)n[nH]1	i
CCNc1nc(NC(C)(C)C)nc(Oc2ccc(=O)[nH]n2)n1	i
c1ccc(-c2nnc3sc(-c4cc5ccccc5o4)nn23)cc1	4.9µg/mL*
Cc1cnn(C(=O)c2cccc([N+](=O)[O-])c2)c1	3%
CCc1ccc(OCc2nnc(SCC(=O)Nc3cc(Cl)ccc3OC)o2)cc1	i
Nc1ncnc(N2CCN(c3cccc(Cl)c3)CC2)c1[N+](=O)[O-]	i
COc1ccc(NC(=O)CSc2nnc(CNC(=O)c3ccc(Cl)cc3)n2C)cc1	i
COCC(=O)Nc1cc(F)cc(F)c1	i
CCOC(=O)C1CCN(C(=S)Nc2ccc(OCC)cc2)CC1	i
COc1cccc2cc(-c3ccccc3)c(=O)oc12	i
CCOc1ccccc1N1CCN(C(=O)C2CCN(Cc3ccc(OC)c(OC)c3)CC2)CC1	i
CCc1ccc(CNC(=O)C(=O)Nc2cccc(C(F)(F)F)c2)cc1	i
CC(C)(C)c1cc(Cl)c(O)c(NC(=S)NC(=O)c2cncc(Br)c2)c1	<0.1µg/mL*
CCOC(=O)c1ccc(NC(=S)N2CCN(c3ccccc3)CC2)cc1	i
COc1ccc(OC)c(S(=O)(=O)Nc2ccc(Oc3ccccc3)cc2)c1	i
CCC(Sc1nc2ccccc2n1CC)C(=O)O (stereo not given)	i
COc1ccccc1CNC(=O)COc1ccc(Br)cc1	7%
CC(=O)N1CCc2cc(S(=O)(=O)NCc3ccco3)ccc21	i
Cc1cc(C)cc(NC(=O)COc2ccccc2C=O)c1	3%
Cc1ccc2oc(-c3ccc(Cl)c(NC(=O)c4ccc5c(c4)OCO5)c3)nc2c1	i
Cc1cc(C)n(C(=O)c2ccccc2Br)n1	i
O=C(COc1ccccc1Cl)Nc1ccc(Cl)cc1C(F)(F)F	i
CCCc1ccc(OCCNC(=O)c2ccccc2F)cc1	i

Individual results from the results shown.
Under Mtb growth, O=C(c1cccc(Cl)c1)N1N=C(c2ccc(Cl)cc2)CC1(O)C(F)(F)F (stereo not given) reads 3.8µg/mL*
Under Mtb growth, Cc1cc(C)cc(NC(=O)COc2ccccc2C=O)c1 reads 3%

Next section
SMILES	Mtb growth
CCOc1cc(CNCc2ccccc2Cl)ccc1OCC(=O)NC(C)(C)C	3%
COC(=O)c1ccccc1NC(=O)COc1ccc(C(C)(C)C)cc1Br	38%
Cc1ccccc1OCCNC(=O)c1ccccc1Sc1ccccc1C#N	i
CCn1c(SCC(=O)Nc2cc(OC)ccc2OC)nnc1-c1ccc(Cl)cc1Cl	4%
CCn1c(/C=C/c2ccccc2O)nc2ccc(I)cc2c1=O	3%
CCOc1cc(CN2CCC(C(=O)N3CCN(c4ccccc4F)CC3)CC2)ccc1O	2%
O=C(Cc1ccc(Cl)cc1)Nc1nc(-c2ccc(Cl)cc2Cl)cs1	i
CCC(=O)Nc1ccc(Br)c(Cl)c1	6%
Cc1ccc(SCC(=O)NC2CC2)cc1	i
OCCNCCSc1ccc(Cl)cc1	i
O=C1Nc2ccc(Br)cc2C12NCCc1c2[nH]c2ccccc12 (stereo not given)	11%
Cc1ccc(CC(=O)Nc2nc(-c3ccccc3)cs2)cc1	i
CC(C)c1cccc(C(C)C)c1NC(=O)COc1ccccc1C(C)(C)C	1%
Oc1cccc2c(NC(=S)Nc3ccc(Cl)cc3Cl)cccc12	i
Cc1ccc(C(C)C)c(OCC(=O)Nc2ccc(N3CCN(S(C)(=O)=O)CC3)cc2)c1	i

Screening data (PubChem)

Some of the compounds tested (hit frequency here may not be typical).
